From PubChem
Rce1 inhib: blocks yeast Ras-converting enzyme; Q03530; yeast membranes, quenched prenylated peptide cleavage fluorescence; calls only; 290,000 compounds, 0.27% hits; AID 2563;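 active = fall in fluorescence gain of 50% or more versus controls, with final raw signal at or below 3038400; inconclusive = same 50% fall but final raw signal above 3038400; inactive = fall in fluorescence gain under 50%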;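 note: plate controls were neutral control wells for no effect and wells lacking membranes for full effect; tested at 10 µM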
Target sequence (Q03530 whole entry, looked up): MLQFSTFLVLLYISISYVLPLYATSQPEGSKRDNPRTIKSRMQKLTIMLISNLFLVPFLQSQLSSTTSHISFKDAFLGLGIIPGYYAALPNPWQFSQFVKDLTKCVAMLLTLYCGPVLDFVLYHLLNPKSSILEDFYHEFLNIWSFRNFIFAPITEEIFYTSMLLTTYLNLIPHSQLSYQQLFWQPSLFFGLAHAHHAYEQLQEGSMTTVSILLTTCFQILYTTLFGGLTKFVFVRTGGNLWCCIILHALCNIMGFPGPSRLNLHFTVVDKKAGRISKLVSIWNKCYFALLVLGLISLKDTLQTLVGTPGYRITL
PABP FP inh: blocks human PABP binding to poly(A) RNA; P11940; inhibition, % at 35 µM; fluorescence polarization; 290,000 compounds, 1% hits;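 active = 50% or more with normal probe brightness, or confirmed in later tests; inconclusive = above 50% with abnormal brightness, or retests that disagree; inactive = below 50% or failed in later tests; about a fifth of its hits are not listed in these tables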;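 note: calls also rest on retests at 20 µM and on dose response follow-up; controls were probe without protein and protein plus probe with vehicle; some compounds called inactive have numbers as strong as hits; many hits fall short of the cut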
HIV Env fusion: blocks HIV Env-driven cell-cell fusion. HeLa-JRFL Env/CEM21 cell fusion, luciferase. inhibition, % at 12.3 µM. 360,000 compounds, 1.1% hits. AID 651610;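 active = mean replicate inhibition score of at least 50 and every replicate individually at or above 50; inconclusive = only one of the two criteria met; inactive = mean below 50 and not all replicates reaching 50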;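 note: 0% = plate neutral controls and 100% = maraviroc near 300 nM; one replicate is shown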
CSC inhib: cancer stem cell inhibition; cancer stem cell-like cells viability, luminescence; inhibition, % at 7.5 µM; 300,000 compounds, 1.1% hits; AID 2717;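 active = mean at 75% or more and at least half the replicates too; inconclusive = mean and replicates disagree; tested in HMLE shEcad cells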;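 note: 0% = median of negative and 100% = median of positive control wells; the first replicate is given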
Yeast UUG start: modulators of start codon recognition fidelity in yeast | S. cerevisiae UUG-firefly luciferase reporter, luminescence/redox ratio | AID 602363 | 350,000 compounds, 0.13% hits | activity score, % at 18.7 µM;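 active = replicate mean at a twofold rise or more, about +100% in these data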;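 note: firefly luciferase made from a UUG start codon reports start codon fidelity; reporter light over untreated wells divided by growth signal over untreated wells; some hits fall short of that in this replicate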
eIF4H FP inh: inhibitors of RNA binding by human eIF4H. Q15056. eIF4H fluorescence polarization binding assay. inhibition, % at 35 µM. 290,000 compounds, 0.94% hits. AID 2012;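 active = 50% or more with normal probe brightness, or confirmed in later tests; inconclusive = above 50% with abnormal brightness, or retests that disagree; inactive = below 50% or failed in later tests; about a fifth of its hits are not listed in these tables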;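 note: calls also rest on retests at 20 µM and on dose response follow-up; 0% = protein and probe with vehicle and 100% = probe without protein; strong numbers were not always called active; many hits fall short of the cut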
MT1-MMP act inh: blocks activation of human MT1-MMP. 360,000 compounds, 0.061% hits. GFP/RFP ratio change, % at 20 µM. HT1080 RFP-PRO-GFP cells, GFP/RFP ratio fluorescence, overnight; percent of plate control window, DMSO zero. AID 651647;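 active = GFP/RFP ratio change of at least 30% with cell ATP level not reduced by more than half and red fluorescence within 50% of control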; note: strong numbers were not always called active
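Assay system: RFP-PRO-GFP reporter HT1080 cells; read-out basis: GFP/RFP fluorescence ratio; benchmarks: DMSO wells and RFP-L50D-GFP cells; doses: 20 µM single dose, 1% DMSO; schedule: overnight cell settling, then overnight compound exposure, 37 °C, 5% CO2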
eIF4H FP inh retest: second read-out of eIF4H FP inh, no call of its own (marks repeat the call); inhibition, %; compound at 20 µM; confirmation average;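 mean of two retest wells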
PABP FP inh retest: second read-out of PABP FP inh, no call of its own (marks repeat the call); inhibition, %; compound at 20 µM; confirmation repeats;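 mean of two retest wells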
MT1-MMP act inh RFP: further read-out of MT1-MMP act inh, marked with its call; RFP signal change, %; measured here: RFP expression control read;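 0 = vehicle wells; hits needed this value within 50% of zero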
* marks the source's active call; other numbers are inactive results; i = inactive; u = inconclusive; x = not tested or not shown; & = joins results of further samples.

SMILES | Rce1 inhib | PABP FP inh | HIV Env fusion | CSC inhib | Yeast UUG start | eIF4H FP inh | MT1-MMP act inh | MT1-MMP act inh RFP | others
O=C(COC(=O)c1ccccc1NC(=O)c1ccco1)NCc1ccc2c(c1)OCO2 | i | 11 | x | -7 | -4 | 4 | 5 | -2
O=c1oc2ccc(C#CC3(O)CCCCC3)cc2cc1-n1cc(C2(O)CCCCC2)nn1 | x | x | -5 | -18 | 7 | x | -2 | -1
CC1CCCN(C(=S)NC2CCCC2)C1 (stereo unspecified) | i | 6 | 9 | -4 | -26 | -3 | 3 | 5
COC(=O)c1sccc1NC(=O)C1CC2CCC1C2 (stereo unspecified) | i | 3 | 17 | -11 | -21 | 2 | 4 | 3
O=C1COc2ccc(-c3csc(NCC4CCCO4)n3)cc2N1 (stereo unspecified) | i | 8 | x | x | -9 | -14 | 1 | 4
N#Cc1ncc(C(F)(F)F)cc1Sc1ccccc1N | i | -6 | x | -14 | 40 | -7 | 7 | -1
CC(=O)Nc1ccc(NC(=O)Nc2ccccc2C)cc1 | i | 7 | -8 | -6 | x | -6 | 3 | 2
COc1cc(CC(=O)NNC(=O)c2cccs2)cc(OC)c1OC | x | x | -9 | -20 | x | x | 4 | 1
CCSc1cc(N2CCCC2)nc(-c2cccc(C)c2)n1 | i | 6 | x | 29 | x | 1 | -3 | 3
CCn1c(C)nc2cc(C(=O)NNC(=S)Nc3ccc(Cl)cc3)ccc21 | i | 19 | 6 | -13 | -10 | 12 | 10 | 0
CN1OC[C@@H]2CN[C@H](c3ccc(-c4ccc(C#N)cc4)cc3)C[C@@H]21 | x | x | -20 | x | -18 | x | 2 | 3
O=C1CC(c2cc(F)ccc2F)c2cc3c(cc2N1)CCC3 (stereo unspecified) | i | 2 | -5 | 54 | x | 4 | -1 | -11
Cn1c(=O)c2cc(NC(=S)NC3CCCCC3)ccc2n1Cc1ccc(Cl)cc1 | x | x | 1 | x | -26 | x | 0 | -3
CC(=O)c1ccc(NC(=O)COC(=O)c2ccccc2N=Nc2ccc(N(C)C)cc2)cc1 | i | -2 | x | 1 | -5 | -3 | 17 | 1
N#CCC(=O)NCC1(c2ccccc2)CCCC1 | i | 0 | x | -6 | -7 | -11 | 5 | 15
O=[N+]([O-])c1ccc(N2CCCC2)c([N+](=O)[O-])c1 | x | x | -16 | x | -13 | x | 3 | 1
COC(=O)[C@@H]1C[C@@H](c2ccccc2)[C@H](C)C1(C)C | x | x | 25 | x | -29 | x | 1 | 4
O=C(C1=C(c2ccccc2)C(=O)c2ccccc2C1=O)c1ccccc1 | i | -17 | 155* | x | x | -6 | -47 | -25
Cc1ccc(S(=O)(=O)/C(C#N)=C/c2ccccc2OCc2ccccc2)cc1 | i | 14 | 34 | 12 | -3 | -2 | -3 | -5
O=C(CN1CCN(c2ccccc2)CC1)N1CCc2ccccc21 | i | 6 | -7 | -8 | -13 | 2 | 4 | 4
Cc1ccc(C(=O)/C=C/Nc2cccc([N+](=O)[O-])c2)o1 | i | 21 | -20 | 7 | -8 | 12 | -2 | 4
Cc1nn(-c2ccc(F)cc2F)c2c1-c1nc(N3CCCC3)ncc1CC2 | i | 2 | 3 | 40 | 14 | 1 | 5 | -6
Cc1onc(CO)c1C(=O)Nc1nccs1 | i | -7 | 1 | x | x | 0 | 1 | 2
Cc1ccc(S(=O)(=O)Cn2nnnc2C(CC(C)C)N2CCN(C3CCCC3)CC2)cc1 (stereo unspecified) | i | -8 | -3 | 8 | 14 | -23 | 0 | -3

A draw from above in order of number of heavy atoms, rising.
SMILES | Rce1 inhib | PABP FP inh | HIV Env fusion | CSC inhib | Yeast UUG start | eIF4H FP inh | MT1-MMP act inh | MT1-MMP act inh RFP | others
CC1CCCN(C(=S)NC2CCCC2)C1 (stereo unspecified) | i | 6 | 9 | -4 | -26 | -3 | 3 | 5
Cc1onc(CO)c1C(=O)Nc1nccs1 | i | -7 | 1 | x | x | 0 | 1 | 2
N#CCC(=O)NCC1(c2ccccc2)CCCC1 | i | 0 | x | -6 | -7 | -11 | 5 | 15
CCSc1cc(N2CCCC2)nc(-c2cccc(C)c2)n1 | i | 6 | x | 29 | x | 1 | -3 | 3
O=C1CC(c2cc(F)ccc2F)c2cc3c(cc2N1)CCC3 (stereo unspecified) | i | 2 | -5 | 54 | x | 4 | -1 | -11
O=C(CN1CCN(c2ccccc2)CC1)N1CCc2ccccc21 | i | 6 | -7 | -8 | -13 | 2 | 4 | 4
O=C(C1=C(c2ccccc2)C(=O)c2ccccc2C1=O)c1ccccc1 | i | -17 | 155* | x | x | -6 | -47 | -25
Cc1nn(-c2ccc(F)cc2F)c2c1-c1nc(N3CCCC3)ncc1CC2 | i | 2 | 3 | 40 | 14 | 1 | 5 | -6
Cc1ccc(S(=O)(=O)/C(C#N)=C/c2ccccc2OCc2ccccc2)cc1 | i | 14 | 34 | 12 | -3 | -2 | -3 | -5
O=c1oc2ccc(C#CC3(O)CCCCC3)cc2cc1-n1cc(C2(O)CCCCC2)nn1 | x | x | -5 | -18 | 7 | x | -2 | -1

(further entries)
SMILES | Rce1 inhib | PABP FP inh | HIV Env fusion | CSC inhib | Yeast UUG start | eIF4H FP inh | MT1-MMP act inh | MT1-MMP act inh RFP | others
Cc1c(/C=N/NC(=O)c2cccnc2)c2ccccn2c1C(=O)c1ccc(F)cc1 | i | 4 | x | -8 | x | 6 | x | x
CCCOc1cccc(C2C(C(=O)c3ccco3)=C(O)C(=O)N2CCCn2ccnc2)c1 (stereo unspecified) | i | 7 | -8 | 18 | -24 | 72 | 0 | 6 | eIF4H FP inh retest=-12;PABP FP inh retest=7
O=C(NCc1cccc(F)c1)C1CCC(=O)N(CCc2cccc(F)c2)C1 (stereo unspecified) | i | 5 | -9 | 4 | 10 | -11 | -1 | 1
COc1cc(C(=O)N2CCN(C)C(C)C2)ccc1OC1CCN(C(C)=O)CC1 (stereo unspecified) | i | 11 | -8 | -10 | -27 | 4 | -2 | 4
Cc1noc(C)c1NC(=O)N(C)C[C@H]1Oc2ccc(NS(=O)(=O)c3cn(C)cn3)cc2C(=O)N([C@H](C)CO)C[C@@H]1C | x | x | -16 | x | 7&-8 | x | 1 | 5
CC(=O)c1ccc(N2CCN(C(=O)Nc3ccc(F)cc3)CC2)cc1 | i | 4 | x | -9 | x | 1 | -2 | -3
Cc1ccc(N2CC(O)Cn3c2nc2c3c(=O)n(C)c(=O)n2C)cc1 (stereo unspecified) | i | 0 | 14 | 0 | -6 | 6 | -4 | 0
CCOC(=O)COn1c(=O)c(-c2ccco2)[n+]([O-])c2ccccc21 | i | 26 | -5 | -1 | -10 | 33 | -8 | 6
CCCN1C(=O)C(Cc2nc3ccccc3c(=O)n2-c2ccccc2)c2ccccc21 (stereo unspecified) | i | 8 | 33 | 11 | x | 7 | -7 | -4
COc1ccc2[nH]cc(C(=O)C(=O)N3CCCCC3)c2c1 | i | -8 | x | -2 | -15 | -6 | 4 | 5
CCOC(=O)C(C(=O)OCC)C(C[N+](=O)[O-])c1ccccc1 (stereo unspecified) | i | u | -8 | 7 | x | -2 | -2 | 3
CCCCOc1ccc(N2CC(C(=O)NCCc3ccc(OC)c(OC)c3)CC2=O)cc1 (stereo unspecified) | i | -5 | 13 | -5 | x | 4 | -2 | 0
N#CNC(=Nc1cccc(F)c1)SCc1ccccc1 | i | -10 | 1 | -11 | x | 1 | -2 | -5
CC(CC(=O)NNC(=O)c1ccncc1)c1ccccc1 (stereo unspecified) | i | x | -47 | 0 | -18 | x | -7 | 2
Cc1ccc(C)c(-n2ccnc2SCC(=O)c2c(N)n(C3CC3)c(=O)[nH]c2=O)c1 | x | x | x | -1 | -16 | x | -7 | 2
CC(=O)Nc1ccc(S(=O)(=O)Nc2cccc(-n3cnnn3)c2)cc1 | i | -1 | 1 | -13 | x | 2 | 3 | 3
Cc1cc(=O)[nH]c(SCc2nnc(-c3ccccc3)o2)n1 | i | -7 | x | -1 | -22 | -1 | 1 | 3
COc1ccc(CCNC(=O)Cc2cc(OCc3ccccc3)c(OC)cc2[N+](=O)[O-])cc1OC | i | 8 | x | -4 | 6 | 5 | x | x
CCc1nn(CC(=O)NCCN2CCOCC2)c(=O)c2cc3c(OC)cccc3n12 | i | 6 | -6 | 0 | -25 | 12 | -4 | -4
COCCn1c(SCC(=O)N2CCCc3ccccc32)nc2cccnc21 | i | -6 | -11 | -8 | -13 | -5 | -1 | 1
COc1ccccc1/C=C/CN1CCC(Oc2ccc(C(=O)N3CCCCC3)cc2)CC1 | i | 7 | 5 | 11 | -1 | -9 | 0 | 0
O=C(O)Cc1ccc(C(=O)CSc2ccccc2)s1 | i | u | -3 | -2 | x | u | -1 | 4
COC(=O)c1ccsc1NC(=O)CN1C(=O)CCC1=O | i | 10 | -20 | -10 | -15 | -8 | 1 | 4
O=C(Nc1ccc(S(=O)(=O)Nc2nccs2)cc1)c1ccc(F)c(S(=O)(=O)N2CCOCC2)c1 | i | -3 | 4 | 5 | -21 | 52* | -1 | -3 | eIF4H FP inh retest=84*;PABP FP inh retest=49
O=C(O)CSCC(=O)Nc1ccc(Cl)cc1C(F)(F)F | i | 4 | 12 | 4 | x | -3 | 0 | 2
COc1ccc2c(C(=O)CN3CCSCC3)c[nH]c2c1 | i | -4 | 31 | -1 | x | 3 | -2 | 4
O=S(=O)(Nc1nc2ccccc2nc1N1CCN(CCO)CC1)c1cc(F)ccc1F | x | x | 9 | x | -5 | x | -7 | -3
CCc1nc(N[C@@H](Cc2c[nH]c3ccccc23)C(=O)O)c2oc3ccccc3c2n1 | i | 4 | x | -3 | 3 | 10 | 5 | 5
Cc1ccc2c(c1)C1(C(=O)N2)N2CCCC2C(C(=O)c2ccc3ccccc3c2)C12C(=O)Nc1ccccc12 (stereo unspecified) | i | x | 9 | x | -2&1 | x | 2 | 0
Cc1nn(CC(=O)N(C)C2(C#N)CCCCC2)c(C)c1[N+](=O)[O-] | x | x | -3 | x | 7 | x | -2 | -1
O=CNC(n1cnc2c(N3CCOCC3)ncnc21)C(Cl)(Cl)Cl (stereo unspecified) | i | -8 | 0 | 3 | -37 | 10 | 2 | -2
CNc1snc(C)c1C(=O)OC(C)C(=O)Nc1ccc(F)cc1 (stereo unspecified) | x | x | x | 4 | -2 | x | 4 | -9
CCOC(=O)CSc1nc(N)c(C#N)c(-c2ccc(OC)cc2)c1C#N | i | 0 | x | -6 | -7 | 0 | 1 | -1
Cc1cc(OCC(=O)c2ccc(C(F)(F)F)cc2)n2cnnc2n1 | i | -8 | 4 | -21 | x | -3 | 2 | 3
CCc1cc2c(SCC(=O)Nc3cc(C)on3)ncnc2s1 | i | -3 | -5 | x | x | 4 | -4 | -8
COC(=O)C1=CN(Cc2ccc(C)cc2)C=C(C(=O)OC)C1c1ccc(F)c(F)c1 | i | 16 | 5 | 28 | -4 | 5 | -3 | -7
